From PubChem BioAssay
NS1 function inh: blocks influenza NS1 protein function. 0.4% of 270,000 active. S. cerevisiae slowed by influenza A NS1, growth recovery by OD600. AID 2326. Potency, µM (series often up to 46.1 µM), inactives show at the highest dose activity, positive = more growth; note: actives are rising curves; nearly all actives have a fitted effect of over 50% in size
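Recovery from NS1-induced slow growth read by OD600 in budding yeast switched to galactose assay medium (pH 6.0, -URA) at 1:100 dilution. Compound 23 nl per well; the matching strain lacking NS1 serves as control.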
Cruzain inh noDet: cruzain (T. cruzi) inhibition without detergent; 2.3% of 200,000 active; purified cruzain, Z-FR-AMC fluorescence, no detergent; Potency, µM, inactives show max response, negative = inhibition, actives largely listed as inhibitors; P25779; active = well fitted curve in the direction sought with a large enough effect; inconclusive = small, poorly fitted or top-dose-only effect, or another doubt; inactive = no such curve, though single readings can be large; an effect the other way counts as inactive or inconclusive;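 note: plate controls were enzyme without inhibitor for no effect and buffer without enzyme for full effect; nearly all actives have a fitted effect of over 40% in size; top concentration of the series not given in the record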
Target sequence (P25779 123-467 limits assumed): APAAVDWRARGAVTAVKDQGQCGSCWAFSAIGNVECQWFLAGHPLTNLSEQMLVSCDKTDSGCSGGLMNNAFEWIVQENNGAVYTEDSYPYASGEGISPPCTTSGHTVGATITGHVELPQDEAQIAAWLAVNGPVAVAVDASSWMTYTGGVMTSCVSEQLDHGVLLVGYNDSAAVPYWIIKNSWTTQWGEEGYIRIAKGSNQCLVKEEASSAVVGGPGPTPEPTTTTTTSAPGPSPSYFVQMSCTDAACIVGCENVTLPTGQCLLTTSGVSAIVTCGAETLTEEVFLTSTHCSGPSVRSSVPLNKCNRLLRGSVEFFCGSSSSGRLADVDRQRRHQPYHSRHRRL
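Detergent-free condition (0.00005% Triton X-100) in acetate buffer pH 5.5 with DTT. 1.5 nM enzyme and compound were pre-mixed 15 min, then 2 uM Z-FR-AMC substrate added; reaction progress from fluorescence change between first and third reads (60 s).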
StopGo reporter: FMDV 2A StopGo reporter, luciferase signal | human cells with a luciferase reporter of 2A StopGo recoding; control for the full effect not named in the record | Potency, µM (series often up to 57.9 µM), without a hit: at the top dose signal change, negative = less light | 1.2% of 410,000 active; active = well fitted falling curve with a large enough effect; inconclusive = small, poorly fitted or top-dose-only effect; inactive = no such curve, though single readings can be large or run the other way; tested in HEK293T cells; note: % is set by controls: 0 for no effect and ±100 for the full control effect; nearly all actives have a fitted effect of over 45% in size; luciferase light after 4 h
SARS PLP yeast: blocks SARS-CoV papain-like protease in a yeast assay. S. cerevisiae expressing SARS-CoV PLpro, growth rescue; control for the full effect not named in the record. Potency, µM (top dose mostly 32.9 µM), without a hit: at the highest dose activity, positive = growth rescue. 0.19% of 330,000 active; note: 0% is about no effect; nearly all actives have a fitted effect of over 55% in size; growth read by luminescence after 48 h
Marburg entry inh: inhibitors of Marburg virus binding or cell entry. Marburg virus pseudotyped entry inhibition, cell reporter; control for the full effect not named in the record; about a third of the inactives were read at about 46 µM. Potency, µM (series often up to 37.8 µM), for the others: top-dose activity change, negative = inhibition, hits mostly inhibitors. 1.8% of 300,000 active; active = well fitted inhibition curve with a large enough effect; inconclusive = small, poorly fitted or top-dose-only effect, or effect the other way; inactive = flat fitted curve, though single readings scatter; tested in HEK293 cells; about a fifth of its hits are not listed in these tables; note: % is set by controls: 0 for no effect and ±100 for the full control effect; luciferase read-out
Cruzain inh Det: inhibitors of Trypanosoma cruzi cruzain with detergent; Potency, µM, without a hit: max response, negative = inhibition, hits mostly inhibitors; P25779; purified cruzain, Z-FR-AMC fluorescence, 0.01% Triton; 0.43% of 200,000 active; active = well fitted curve in the direction sought with a large enough effect; inconclusive = small, poorly fitted or top-dose-only effect, or another doubt; inactive = no such curve, though single readings can be large; an effect the other way counts as inactive or inconclusive;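 note: plate controls were neutral wells for no effect and buffer without enzyme for full effect; nearly all actives have a fitted effect of over 40% in size; top concentration of the series not given in the record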
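Cysteine protease activity tested under reducing, mildly acidic conditions (100 mM sodium acetate pH 5.5, 5 mM DTT) plus 0.01% Triton X-100. Cruzain 1.5 nM; substrate Z-FR-AMC 2 uM; 15 min compound preincubation at room temperature.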
Lassa entry inh: blocks Lassa virus binding to or entry into cells; Lassa virus pseudotype entry inhibition, cell reporter; control for the full effect not named in the record; Potency, µM (series often up to 37.9 µM), for the others: at the top dose activity change, negative = inhibition, usual class: inhibitors; 1.2% of 300,000 active; active means well fitted inhibition curve with a large enough effect; inconclusive means small, poorly fitted or top-dose-only effect, or effect the other way; inactive means flat fitted curve, though single readings scatter; tested in HEK293 cells; note: % is set by controls: 0 for no effect and ±100 for the full control effect; nearly all actives have a fitted effect of over 50% in size; luciferase read-out
RE007 growth inh: less growth of the S. pombe RE007 Vpr strain; S. pombe RE007 Vpr strain, BacTiter-Glo ATP luminescence, 24 h; control for the full effect not named in the record; Potency, µM (titrated, usually from 92.2 µM), for inactives: at the top dose activity change, negative = less growth; 0.21% of 360,000 active; AID 651644; active = well fitted falling curve with a large enough effect; inconclusive = small, poorly fitted or top-dose-only effect; inactive = no such curve, though single readings can be large or run the other way;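 note: % is set by controls: 0 for no effect and ±100 for the full control effect; nearly all actives have a fitted effect of over 50% in size; the assay follows cell death caused by Vpr and the record does not say whether a fall means rescue or toxicity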
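Fission yeast RE007 carrying one integrated HIV-1 vpr copy, seeded at OD 0.01 in PMG+AL medium with 23 nL pinned compound. Grown 24 h at 30 degrees; viability read by BacTiter-Glo luminescence after 5 min.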
* hit, by the source's call; ? = inconclusive; nt = no result given; & = joins results of further samples; [ ] = dose if it differs, or a comment. Unless noted, calls come from the whole dose curve; as a rule, active means well fitted rising curve with a large enough effect; inconclusive means small, poorly fitted or top-dose-only effect; inactive means no such curve, though single readings can be large or run the other way. Potency is the fitted concentration of half-maximal effect. Rows were taken by chance; about 4.7% have a hit in one of these screens.

SMILES	NS1 function inh	Cruzain inh noDet	StopGo reporter	SARS PLP yeast	Marburg entry inh	Cruzain inh Det	Lassa entry inh	RE007 growth inh
CCNC(=O)c1cccc(NC(=O)c2cc(C3CC3)nc3c2cnn3C(C)C)c1	nt	nt	-9%	-4%	?	nt	?	2%
O=C(CN1CCN(Cc2ccc(F)cc2Cl)C1=O)NCCc1ccc(Cl)cc1	-3%	?	-11%&-26%	0%	-4%[46.1 µM]	-4.1%&-2.1%	-2%[46.1 µM]	-2%
COc1ccccc1-c1cc(C(=O)Nc2ccccc2SC)no1	0%	-17%	15%	-5%	10%	11%	2%	-1%
Cc1ccccc1NC(=O)c1ccco1	0%	nt	-11%	-2%	nt	nt	nt	-17%
CC1CCCN(C(=O)C23CCC(C)(C(=O)C2)C3(C)C)C1 (stereo not given)	4%	13%	19%	-7%	-4%	9.3%	?	1%
COc1ccc(Cl)cc1NC(=O)Cn1nc(Cc2ccncc2)c2ccccc2c1=O	nt	23%	-15%	nt	?	-3.7%	-15%[46.1 µM]	nt
O=C(O)C(CCc1ccccn1)c1ccccc1 (stereo not given)	nt	nt	-15%	nt	0%[46.1 µM]	nt	0%[46.1 µM]	-20%
Cc1ccnc(N=Cc2c(O)ccc3oc4c(c23)CCCC4)c1	-7%	-10%	nt	-26%	-2%	-9.3%	?	nt
CCOC(=O)C1(CCOc2ccccc2)CCN(C(=O)c2cncs2)CC1	-2%	nt	?	0%	13%[46.1 µM]	nt	-5%	5%
N#CCCN/N=C(/Cc1nc2ccccc2[nH]1)c1ccc(Cl)cc1	17%	25µM*	nt	-1%	-4%	-0.7%	nt	nt
Cc1cccc(NC(=O)CC2C(=O)NCCN2C(=O)Nc2ccc(Cl)cc2)c1 (stereo not given)	15%	nt	-24%	-5%	nt	nt	nt	-17%
CCc1ccc(NC(=O)c2ccc3nc(C(C)C)oc3c2)cc1	nt	3%	32%[activator]	nt	nt	-1.4%	-11%[46.1 µM]	nt
C/C=C/C=C\C(=O)Nc1cccc(C2=NOC3(C2)C[C@@H](C(N)=O)N(C(=O)c2cc([N+](=O)[O-])cc([N+](=O)[O-])c2C)C3)c1 (stereo not given in full)	-3%	nt	-17%	-3%	nt	nt	nt	-15%
CC(C)c1ccc(NC(=O)c2ccc3c(O)c(S(=O)(=O)c4ccccc4)c(=O)[nH]c3c2)cc1	nt	-10%	-8%	nt	nt	-4.9%	4%[46.1 µM]	nt
O=C(NCc1ccc(Cl)cc1)c1ccc(NC(=O)N2CC3CCCN3c3ccccc32)cc1 (stereo not given)	nt	?	-11%	nt	-15%[46.1 µM]	-7.5%	-13%[46.1 µM]	nt
CCN1CCN(CCCNC(=O)c2cc3c(=O)[nH]c4ccccc4c3s2)CC1	-2%	5%	nt	6%[6.58 µM]	?	-7.9%	?	-16%
CN(c1ccc(OCC(=O)N2CCOCC2)cc1)S(=O)(=O)c1ccc(Cl)cc1	nt	nt	-24%	4%	0%[46.1 µM]	nt	-11%[46.1 µM]	2%
CS(=O)(=O)c1ccc(C(=O)Nc2nc(-c3ccco3)c(-c3ccco3)s2)cc1	nt	nt	?	0%	-19%	nt	12%	-16%
O=C(/C=C/c1ccco1)NC(=S)Nc1cccc(-c2nc3ccccc3s2)c1	nt	nt	-6%	nt	3.5µM*	nt	-21%	-27%
Cc1ccc(Cl)cc1N1CCN(C(=O)c2cn(C)c3ccc(S(=O)(=O)N4CCCCC4)cc3c2=O)CC1	nt	-5%	-9%	nt	2%[46.1 µM]	-1.7%	-1%[46.1 µM]	nt
Cc1ccccc1-n1c(-c2ccc([N+](=O)[O-])cc2)nc2ccccc2c1=O	-6%	-4%	-16%	-35%	-8%[46.1 µM]	-5.2%	-11%	0%
COc1cc(CCNc2ccc3nnc(-c4ccccc4)n3n2)cc(OC)c1OC	-12%	?	?	-8%	-32%	-1.3%	-1%	-9%
CC(CCc1ccco1)NC(=O)CSc1cc(=O)n(C)c2ccccc12 (stereo not given)	2%	0%	-9%	-4%	-18%	7.3%	0%	6%
Cc1nnc(SCC(=O)Nc2nsc(-c3ccc(Cl)cc3)n2)s1	-12%	?	19%	1%	5%	?	12%	-18%
CC[N+]1(C)CCC(=C2c3ccccc3CC(=O)c3sccc32)CC1 (stereo not given)	0%	-5%	-20%	-5%	24%&1%	-0.2%	28%	-13%

The list goes on.
SMILES	NS1 function inh	Cruzain inh noDet	StopGo reporter	SARS PLP yeast	Marburg entry inh	Cruzain inh Det	Lassa entry inh	RE007 growth inh
CC(c1ccc(Cl)cc1)n1c(-c2ccc3ccccc3n2)n[nH]c1=S (stereo not given)	-3%	-9%	7%	-30%	-13%	-11%	14%	-1%
CCC/C(C)=N/NC(=O)c1ccccc1O	2%	3%	3%	0%	8%	-3.2%	20%	-10%
Cc1ccc(NC(=O)Cn2c(=O)n(CCCCC(=O)NCc3ccccc3Cl)c(=O)c3ccccc32)cc1C	nt	-13%	-14%	nt	4%[46.1 µM]	-1.7%	12%[46.1 µM]	nt
CCc1nc2oc3ccccc3c(=O)c2c(=O)n1-c1ccccc1	-11%	-8%	3%	-11%	5%	6.7%	?	4%
O=C(c1cnn(-c2ccccc2)c1)c1ccccc1O	7%	3%	0%	-13%	?	-11%	?	-7%
COc1ccc(NC(=O)Cn2nnc(-c3ccccc3NC(=O)C3CC3)n2)cc1	-8%	-12%	-18%	0%	16%	2.5%	?	0%
COc1cc(Cl)c(NC(=O)C2CCN(S(=O)(=O)c3c(C)noc3/C=C/c3ccccc3F)CC2)c(OC)c1	nt	-2%	-17%	nt	nt	-0.3%	12%[46.1 µM]	nt
COc1ccc(CCNC(=O)Cc2c(Cl)cccc2Cl)cc1	nt	nt	14%	-5%	9%[14.2 µM]	nt	13%	-1%
O=C(CSc1nc2ccccc2s1)N1c2ccccc2Sc2ccc(C(F)(F)F)cc21	13%	10µM*	-22%	4%	?	4.6%	-24%	4%
COc1ccccc1CNC(=O)C1CCC(CNS(=O)(=O)c2ccccc2)CC1 (stereo not given)	-8%	nt	-25%	-1%	nt	nt	nt	-11%
COc1ccc(N2C(=O)CC(c3ccc(OC(C)C)cc3)C2=O)cc1 (stereo not given)	3%	10%	-13%	-1%	nt	0.2%	nt	6%
CCOC(=O)CSC1=C(C#N)C(c2ccccc2F)C(C(C)=O)=C(C)N1 (stereo not given)	-4%	1%	-12%	0%	-5%	-4.3%	-27%	19%
N#Cc1cc2c(nc1SCC(=O)Nc1cccc(F)c1)C1CCN2CC1	nt	-18%	2%	nt	?	-2.4%	-22%[46.1 µM]	nt
COc1ccc(C(=O)O)cc1NCc1cccnc1	18%	nt	9%	4%	8%	nt	9%	7%
Brc1ccsc1/C=N/Nc1ccccc1	nt	nt	14%	nt	2%	nt	3%	21%
S=C(Nc1cccc(Cl)c1)NC1CC2CCCC(C1)N2C1CCCC1 (stereo not given)	-3%	-5%	-6%	-15%	?	-1.9%	-23%	-2%
CCOC(=O)c1c(NC(=O)CSc2nnc(C)c(=O)[nH]2)sc2c1CCCC2	16%	?	-18%	2%	4%	-3.5%	10%	-9%
C=CCn1c(O)c(C2=c3ccccc3=NC2=O)s/c1=N/c1nccs1	9%	8%	-22%	3%	nt	-4.6%	nt	-9%
CCc1ccc(OCCNC(=O)c2ccccc2SCc2ccccc2)cc1	-90%	5%	?	-13%	?	-4.7%	?	13%
O=C(NC1CCCCC1)N1CCSC1=Nc1ccccc1	-71%	-2%	?	5%	?	-7.7%	?	?
NS(=O)(=O)c1ccc(CCNc2ccc(C(F)(F)F)cn2)cc1	11%	nt	-9%	-2%	-1%[46.1 µM]	nt	nt	3%

As a short view, some entries already given.
SMILES	NS1 function inh	Cruzain inh noDet	StopGo reporter	SARS PLP yeast	Marburg entry inh	Cruzain inh Det	Lassa entry inh	RE007 growth inh
COc1ccccc1CNC(=O)C1CCC(CNS(=O)(=O)c2ccccc2)CC1 (stereo not given)	-8%	nt	-25%	-1%	nt	nt	nt	-11%
COc1ccc(N2C(=O)CC(c3ccc(OC(C)C)cc3)C2=O)cc1 (stereo not given)	3%	10%	-13%	-1%	nt	0.2%	nt	6%
CCOC(=O)CSC1=C(C#N)C(c2ccccc2F)C(C(C)=O)=C(C)N1 (stereo not given)	-4%	1%	-12%	0%	-5%	-4.3%	-27%	19%
N#Cc1cc2c(nc1SCC(=O)Nc1cccc(F)c1)C1CCN2CC1	nt	-18%	2%	nt	?	-2.4%	-22%[46.1 µM]	nt
COc1ccc(C(=O)O)cc1NCc1cccnc1	18%	nt	9%	4%	8%	nt	9%	7%
Brc1ccsc1/C=N/Nc1ccccc1	nt	nt	14%	nt	2%	nt	3%	21%
S=C(Nc1cccc(Cl)c1)NC1CC2CCCC(C1)N2C1CCCC1 (stereo not given)	-3%	-5%	-6%	-15%	?	-1.9%	-23%	-2%
CCOC(=O)c1c(NC(=O)CSc2nnc(C)c(=O)[nH]2)sc2c1CCCC2	16%	?	-18%	2%	4%	-3.5%	10%	-9%
C=CCn1c(O)c(C2=c3ccccc3=NC2=O)s/c1=N/c1nccs1	9%	8%	-22%	3%	nt	-4.6%	nt	-9%
CCc1ccc(OCCNC(=O)c2ccccc2SCc2ccccc2)cc1	-90%	5%	?	-13%	?	-4.7%	?	13%
O=C(NC1CCCCC1)N1CCSC1=Nc1ccccc1	-71%	-2%	?	5%	?	-7.7%	?	?
NS(=O)(=O)c1ccc(CCNc2ccc(C(F)(F)F)cn2)cc1	11%	nt	-9%	-2%	-1%[46.1 µM]	nt	nt	3%
